# Compound activity from PubChem BioAssay.
# BJeLR viability: BJeLR cell viability loss, primary screen, luminescence, CellTiterGlo ATP; BJeLR fibroblasts viability, 48 h; HRASV12, hTERT and SV40 LT/ST transformed; viability loss activity score, % (concentration not given with the values); 0.64% of 30,000 active; in the data active = viability loss activity score above about 50%; about a fifth of its hits are not listed in these tables;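 also: higher score means fewer live cells and less ATP luminescence; stock transfer was 50 or 100 nL into about 30 µL; 0% = vehicle wells and 100% = a reference killing control; one replicate is shown; the record names a cut of 85%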
# A1 inh: inducers of caspase activity in MEF A1-2A-BIM cells, primary screen, A1 inhibitor project, cell-based, CaspaseGlo luminescence. AID 2241, 2010. caspase-Glo luminescence, 3 h; percent of clofoctol signal, DMSO as zero. caspase activation, % (concentration not given with the values). 0.51% of 21,000 active;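 active = most replicate scores above 10, or exactly half above 10 with mean activity above 10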;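 also: effector caspase 3 and 7 activity cleaving a DEVD luciferin substrate; 50 nL library stock added to about 30 µL; numbers are from one replicate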
# Numbers without * were called inactive; nt = no result given. This is a subset; the hit share may differ from the screen's.
no.	SMILES	BJeLR viability	A1 inh
1	Cc1ccc(S(=O)(=O)N(C)C[C@@H]2Oc3ccc(NC(=O)c4ccncc4)cc3C(=O)N([C@H](C)CO)C[C@H]2C)cc1	5.4	0.1
2	CCc1cccc(C)c1NC(=O)N(Cc1ccccc1)C(C)C	4.4	0.0
3	C[C@@H]1CN([C@@H](C)CO)C(=O)c2cccc(NC(=O)C3CC3)c2O[C@H]1CN(C)C(=O)Nc1ccc(F)cc1	12	nt
4	O=C(Nc1ccc(O)c(-c2nc3ccccc3o2)c1)C1(c2ccccc2)CCCC1	6.7	nt
5	C[C@@H]1CN([C@H](C)CO)C(=O)c2cc(NC(=O)Cc3cn(C)c4ccccc34)ccc2O[C@@H]1CN(C)S(=O)(=O)c1ccc(F)cc1	-5.5	-0.3
6	Cc1ccc(Cn2c(=O)cc(C(=O)NC3CCCCC3)c3ccccc32)cc1	0.4	2.6
7	O=Nc1c(O)n(CC(=O)Nc2ccccc2)c2ccccc12	-3.8	-3.4
8	C[C@@H]1C[C@H]2[C@@H]3C[C@H](F)C4=CC(=O)C=C[C@]4(C)[C@@]3(F)[C@@H](O)C[C@]2(C)[C@@]1(O)C(=O)CO	-6.9	0.3
9	CCN1C(=O)c2ccccc2Sc2ccc(C(=O)NCCc3ccccc3)cc21	34	4.8
10	O=C(CNC(=O)c1cccs1)NCc1cccs1	5.7	0.4
11	S=c1cc(-c2ccccc2)oc(-c2ccccc2)c1	5.5	0.2
12	CC1=CC(C)(C)N(Cc2ccccc2)c2ccccc21	6.4	-0.1
13	Cc1noc(C)c1NC(=O)Nc1ccc2c(c1)C(=O)N([C@@H](C)CO)C[C@H](C)[C@H](CN(C)Cc1ccncc1)O2	-2.7	0.1
14	CCCCN(CC)S(=O)(=O)c1c(C)[nH]c(=O)[nH]c1=O	-1.9	nt
15	O=c1cc(CO)oc(C(Nc2ccccn2)c2ccccc2O)c1O (centres undefined)	-2.2	-0.6
16	CC1(C)CC(=O)C=C(Sc2nc3cc(Cl)ccc3s2)C1	69*	0.1
17	CCn1c(SCC(=O)Nc2cccc(Cl)c2Cl)nc2ccccc2c1=O	3.0	-0.3
18	CC(=O)N/C(=C\c1ccccc1)C(=O)NC1CCCCC1C (centres undefined)	12	-0.6
19	C[C@@H]1CN([C@H](C)CO)C(=O)c2cccc(N(C)C)c2O[C@H]1CN(C)C	-5.1	nt
20	CC(C)NC(=O)N(C)C[C@@H]1Oc2c(NC(=O)c3cnccn3)cccc2C(=O)N([C@@H](C)CO)C[C@H]1C	-4.6	nt
21	O=C(Nc1ccc(S(=O)(=O)Nc2ccccc2Oc2ccc(Cl)cc2Cl)cc1)C1CC1	-3.9	-0.4
22	COc1c(-c2ccccc2)oc2c(OC)c(O)cc(O)c2c1=O	-3.7	0.5
23	COc1cc(C[C@@H]2COC(c3ccc(O[C@@H]4O[C@H](CO)[C@@H](O)[C@H](O)[C@H]4O)c(OC)c3)[C@@H]2CO)ccc1O[C@@H]1O[C@H](CO)[C@@H](O)[C@H](O)[C@H]1O (some centres undefined)	1.1	0.0
24	C[C@@H]1CN([C@H](C)CO)C(=O)c2cc(NC(=O)Nc3ccc(C(F)(F)F)cc3)ccc2O[C@H]1CN(C)C(=O)Nc1ccc(F)cc1	1.2	0.7
25	Cc1cnc(N(C(=O)c2c(-c3ccccc3)noc2C)C(=O)c2c(-c3ccccc3)noc2C)c(C)n1	4.6	0.8
26	C[C@H](CO)N1C[C@H](C)[C@H](CN(C)Cc2ccc(C(=O)Nc3ccccc3N)cc2)Oc2ccc(NC(=O)Cc3cn(C)c4ccccc34)cc2C1=O	7.1	nt
27	C[C@@H]1CN([C@H](C)CO)C(=O)c2cc(NS(=O)(=O)c3ccc(F)cc3)ccc2O[C@@H]1CN(C)Cc1ccc(C(=O)O)cc1	0.1	0.4
28	COc1ccc(CN(C)C[C@@H]2Oc3ccc(NC(=O)c4ccncc4)cc3C(=O)N([C@@H](C)CO)C[C@@H]2C)cc1	-2.9	-0.3
29	C[C@H](CO)N1C[C@H](C)[C@@H](CN(C)C)Oc2ccc(NC(=O)Cn3cnnn3)cc2C1=O	0.6	0.8
30	O=C(Cn1cnc2c(nnn2-c2cccc(Cl)c2)c1=O)NCC1CCCO1 (centres undefined)	-0.3	0.6
31	COc1ccc(-c2cc(=O)c3c(O)cc(O)cc3o2)cc1	-4.4	-6.0
32	C[C@H](CO)N1C[C@H](C)[C@@H](CN(C)C(=O)Nc2ccccc2)Oc2ccc(NC(=O)CCCCCC(=O)Nc3ccccc3N)cc2C1=O	0.8	nt
33	O=C(N=S1CCN(C(=O)c2ccc(Cl)cc2)CC1)c1ccc(Cl)cc1	-2.6	-0.1
34	COc1ccc(NC(=O)N(C)C[C@H]2Oc3ccc(NC(=O)CCN4CCOCC4)cc3C(=O)N([C@@H](C)CO)C[C@H]2C)cc1	2.7	0.5
35	O=C(Nc1cc(C(F)(F)F)ccc1Br)c1ccccc1F	3.2	-0.7
36	Cn1nc(C(C)(C)C)cc1N	-7.4	0.9
37	COc1ccc(S(=O)(=O)Nc2cccc3c2O[C@@H](CN(C)C)[C@H](C)CN([C@@H](C)CO)C3=O)cc1	-8.6	nt
38	C[C@@H]1CN([C@@H](C)CO)C(=O)c2cc(NS(=O)(=O)c3cccs3)ccc2O[C@H]1CN(C)Cc1ccc(-c2ccccc2)cc1	-5.3	0.0
39	C[C@@H]1CN([C@H](C)CO)C(=O)c2cc(NC(=O)Nc3ccc4c(c3)OCO4)ccc2O[C@@H]1CN(C)S(C)(=O)=O	2.6	-0.3
40	CC1CCN(C(=O)/C=C/c2ccc3c(c2)OCO3)CC1	1.4	-3.0
41	FC(F)(F)C1NCCc2c1[nH]c1ccccc21 (centres undefined)	0.8	1.0
42	O=C(CCSCc1ccccc1Cl)NC1CCCCC1	1.5	1.0
43	CC(=O)Nc1nnc(-c2c(-c3c(Cl)cccc3Cl)noc2C)o1	-1.2	0.3
44	O=C(O)c1ccc2ccccc2c1Br	-2.0	-0.3
45	Cc1cc(F)ccc1S(=O)(=O)NCC1CC2CCC1C2 (centres undefined)	6.6	-0.4
46	Cc1ccc(-n2cc(-c3ccccc3)nc2SCC(=O)NCCc2ccccc2)cc1	0.7	2.0
47	CCN(CC)CCN=Cc1c(O)n(-c2ccccc2C)c(=O)[nH]c1=O	2.4	0.7
48	C[C@H]1CN([C@@H](C)CO)C(=O)c2cccc(NC(=O)C3CCCCC3)c2O[C@@H]1CN(C)C(=O)Nc1ccccc1	-1.1	nt
49	C[C@@H]1CN([C@@H](C)CO)C(=O)c2cccc(NC(=O)c3nc4ccccc4s3)c2O[C@@H]1CN(C)S(=O)(=O)c1ccccc1	-8.7	nt
50	C[C@@H]1CN([C@H](C)CO)C(=O)c2cccc(NS(C)(=O)=O)c2O[C@H]1CN(C)S(=O)(=O)c1ccccc1	2.4	nt
51	CS(=O)c1sc(C(=O)OCc2ccccc2)c2c1C(=O)CC(C)(C)C2 (centres undefined)	116*	4.1
52	C[C@H]1CN([C@@H](C)CO)C(=O)c2cc(NS(=O)(=O)c3ccc(Cl)cc3)ccc2O[C@H]1CN(C)Cc1ccc(C(=O)Nc2ccccc2N)cc1	13	nt
53	CNC[C@@H]1Oc2c(NS(=O)(=O)c3cccs3)cccc2C(=O)N([C@@H](C)CO)C[C@H]1C	1.9	nt
54	COc1ccc(S(=O)(=O)N(C)C[C@@H]2Oc3ccc(NC(=O)c4ccncc4)cc3C(=O)N([C@@H](C)CO)C[C@H]2C)cc1	0.8	0.0
55	O=C(C1CCC1)N1CCN(c2cc(C(F)(F)F)nc3ccccc23)CC1	0.7	nt
56	C[C@@H]1CN([C@@H](C)CO)C(=O)c2cc(NC(=O)Nc3ccc(C(F)(F)F)cc3)ccc2O[C@@H]1CN(C)S(=O)(=O)c1cccs1	1.5	-0.1
57	C=C[C@H]1[C@H](OC2OC(CO)C(O)C(O)C2O)OC=C(C(=O)OC)[C@H]1CCOC(=O)c1cc(O)c(O)c(O)c1 (some centres undefined)	0.5	-0.1
58	CC(=O)Nc1cccc(-c2nn3c(C)nnc3s2)c1	-1.7	0.1
59	C[C@@H]1CN([C@H](C)CO)C(=O)c2cc(NC(=O)NC3CCCCC3)ccc2O[C@@H]1CN(C)S(=O)(=O)c1ccccc1	12	0.8
60	CC(C)NC(=O)Nc1ccc2c(c1)C(=O)N([C@H](C)CO)C[C@H](C)[C@H](CN(C)S(=O)(=O)c1ccccc1)O2	8.8	-0.3

# The closing 2 compounds of the section above are carried over, then new ones follow.
no.	SMILES	BJeLR viability	A1 inh
59	C[C@@H]1CN([C@H](C)CO)C(=O)c2cc(NC(=O)NC3CCCCC3)ccc2O[C@@H]1CN(C)S(=O)(=O)c1ccccc1	12	0.8
60	CC(C)NC(=O)Nc1ccc2c(c1)C(=O)N([C@H](C)CO)C[C@H](C)[C@H](CN(C)S(=O)(=O)c1ccccc1)O2	8.8	-0.3
61	COc1cc2c(cc1OC)C(COc1cc(C)cc(C)c1)N(C(=O)Cc1cccs1)CC2 (centres undefined)	-2.2	-0.6
62	C=CC(=O)c1ccc2ccccc2c1	0.7	1.4
63	CCCN(CCC)C(=S)NC1CC2C=CC1C2 (centres undefined)	0.6	nt
64	Oc1c(C(c2ccccc2Cl)N2CCCCC2)ccc2cccnc12 (centres undefined)	-6.1	nt
65	COc1ccc(NC(=O)Nc2ccc3c(c2)C(=O)N([C@@H](C)CO)C[C@@H](C)[C@@H](CN(C)Cc2ccc(-c4ccccc4)cc2)O3)cc1	4.9	1.5
66	CC(C)(C)NC(=O)N1CCN(c2cc(C(F)(F)F)ccn2)CC1	-6.6	1.5
67	C[C@H]1CN([C@@H](C)CO)C(=O)c2cc(NC(=O)CCC(F)(F)F)ccc2O[C@H]1CN(C)C	1.5	0.3
68	Cc1ccc(S(=O)(=O)Nc2cccc3c2O[C@@H](CN(C)S(=O)(=O)c2ccc(F)cc2)[C@@H](C)CN([C@@H](C)CO)C3=O)cc1	1.2	nt
69	CC(C)NC(=O)c1ccccc1CCc1ccccc1	0.6	1.4
70	COc1ccc(S(=O)(=O)Nc2cccc3c2O[C@H](CN(C)Cc2ccc(C(=O)O)cc2)[C@H](C)CN([C@H](C)CO)C3=O)cc1	1.3	nt
71	COc1ccc(NC(=O)Nc2ccc(OC)c(OC3CCCC3)c2)cc1OC1CCCC1	3.9	3.3
72	O=C(CCn1cccc(C(F)(F)F)c1=O)Nc1cccc(C(F)(F)F)c1	5.4	-0.8
73	C[C@H]1CN([C@@H](C)CO)C(=O)c2cc(NC(=O)Nc3cccc4ccccc34)ccc2O[C@H]1CN(C)Cc1ccccc1	-1.7	0.8
74	O=S1(=O)CCC(N(S(=O)(=O)c2ccc(F)cc2)S(=O)(=O)c2ccc(Cl)cc2)C1 (centres undefined)	-3.0	0.1
75	CCOC(=O)c1ccc2c(c1)C(=O)N(C1CCCCC1)C2=O	-5.7	nt
76	C=CCn1c(SCC(=O)O)nnc1-c1ccc2c(c1)OCO2	6.2	-0.3
77	COc1ccc(S(=O)(=O)Nc2ccc3c(c2)C(=O)N([C@H](C)CO)C[C@@H](C)[C@H](CN(C)C(=O)Nc2ccccc2)O3)cc1	2.3	-0.4
78	O=C(CN1C(=O)C2(OCCCO2)c2ccccc21)NCCc1ccccc1	-8.4	0.3
79	NNC(=O)c1ccc(COc2cc(Cl)ccc2Cl)o1	2.1	nt
80	COc1cccc2c1c(NC(=O)c1nccnc1C(=O)O)nn2C	2.7	0.6
81	Cc1noc(C)c1NC(=O)N(C)C[C@@H]1Oc2c(cccc2N(C)C)C(=O)N([C@@H](C)CO)C[C@H]1C	0.7	nt
82	CSc1sc(C(=O)Sc2ccccc2)c2c1S(=O)(=O)N(C)c1ccccc1-2	-0.4	-0.8
83	Cc1noc(C)c1NC(=O)Nc1ccc2c(c1)C(=O)N([C@@H](C)CO)C[C@H](C)[C@@H](CN(C)Cc1ccc3c(c1)OCO3)O2	-0.2	-0.2
84	CSc1nnc(-c2ccccc2)n1-c1ccccc1	1.0	0.3
85	O=C(O)CCc1nnc2n(CCc3ccccc3)c(=O)c3ccccc3n12	3.1	0.8
86	CCOC(=O)c1cnc2c(C)cc(Cl)cc2c1NCc1ccccc1	-5.8	nt
87	COc1cccc(-c2nc(N)nc(SC)c2C#N)c1	-0.7	-1.3
88	Cc1nc2ncnn2c(C)c1CCC(=O)N1CCCCC1	4.0	nt
89	C[C@@H]1CN([C@@H](C)CO)C(=O)c2cc(NC(=O)Cc3ccccc3)ccc2O[C@@H]1CN(C)C(=O)Nc1ccccc1	0.7	0.1
90	Brc1ccc(CSc2c[nH]c3ccccc23)cc1	2.2	-0.1
91	O=S(=O)(CCN1CCOCC1)c1ccc(OC(F)(F)F)cc1	0.4	0.4
92	CC1(C)NCCC12C(=O)N(Cc1ccccc1)c1ccccc12 (centres undefined)	-2.0	-0.3
93	COc1ccc(/C=C/C(=O)OC2CCCCC2)cc1	-1.6	-0.4

# Five structures from above, sorted by molecular weight, rising:
no.	SMILES	BJeLR viability	A1 inh
62	C=CC(=O)c1ccc2ccccc2c1	0.7	1.4
63	CCCN(CCC)C(=S)NC1CC2C=CC1C2 (centres undefined)	0.6	nt
69	CC(C)NC(=O)c1ccccc1CCc1ccccc1	0.6	1.4
76	C=CCn1c(SCC(=O)O)nnc1-c1ccc2c(c1)OCO2	6.2	-0.3
86	CCOC(=O)c1cnc2c(C)cc(Cl)cc2c1NCc1ccccc1	-5.8	nt
